RanGTP-Impb inh: inhibitors of RanGTP-importin-beta interaction, primary screen, biochemical, FRET, CFP-Ran, YFP-importin-beta, homogeneous; cell-free CFP-Ran/YFP-importin-beta FRET ratio; 300,000 compounds, 1.1% hits; inhibition, % (concentration not given with the values);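 active means most replicates above 15%; inconclusive means exactly half above 15%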;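 further: 0% = DMSO wells and 100% = Ran loaded with GDP instead of GTP; wells of about 40 µL received 100 nL stock; the first replicate is given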
HNF4A DNA FP: change in binding of human HNF4 alpha to DNA; P41235; HNF4a-FITC DNA binding, fluorescence polarization, 1 h; activity change, % at 10 µM; 360,000 compounds, 0.3% hits; AID 1224865; in the data active means activity change above about 30%, passing the limit was not always enough;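 further: controls were the assay level and a saturating level of protein; the project sought stronger binding though the title names inhibitors; some compounds called inactive have numbers as strong as hits; positive values seem to mean higher polarization but the record does not say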
Calb FLC: affects C. albicans growth with fluconazole; C. albicans CaCi-2 (fluconazole-resistant clinical isolate) + fluconazole, Alamar Blue growth, 48 h; growth inhibition, % (no concentration beside the values); 300,000 compounds, 0.57% hits;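 active means most replicates above 75%; inconclusive means exactly half above 75%; inactive means most below 75%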;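 further: all wells also contain fluconazole at 8 µg/ml as a sub-toxic cotreatment; 0% = median of DMSO wells and 100% = median of geldanamycin control wells; wells of about 8 µL received 7.5 nL stock; the first replicate is given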
Vif A3G: HIV-1 Vif–A3G interaction blockers – biochemical, TR-FRET, GST-Vif 1-94, biotin-A3G peptide, dose response retest, primary screen (AID 1117319); TR-FRET GST-Vif / biotin-A3G peptide binding; higher % means a stronger effect; test concentration not given here; strong numbers were not always called active; inhibition, %, or IC50 in µM where a hit was titrated; 260,000 compounds, 0.57% hits;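 active means above the screen mean plus three standard deviations and confirmed in dose response; inconclusive means results disagree or hit not tested in dose response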;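 further: Vif residues 1-94 fused to GST binding biotinylated APOBEC3G peptide 110-148; 0% = full assay without inhibitor and 100% = GST in place of GST-Vif; retest series ran down from 100 µM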
ALR H2O2 inh: inhibitors of human sulfhydryl oxidase ALR | P55789 | purified ALR, DTT oxidation, H2O2 HRP-luminol luminescence | inhibition, % (no concentration beside the values) | 290,000 compounds, 3.8% hits | AID 485317;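 active means mean and each replicate at 75% or more; inconclusive means only one of the two met; inactive means neither met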;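 further: stock transfer was 7.5 nL into about 7.5 µL; 0% = neutral wells and 100% = wells with inactivated enzyme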
LANA-H2A inh: blocks KSHV LANA binding to histone H2A/H2B | cell-free LANA-H2A/H2B peptide, fluorescence polarization | inhibition, % (concentration not given with the values) | 320,000 compounds, 0.6% hits; in the data active means inhibition mostly above about 10%, no sharp cut-off; inactive means mostly below about 6.7%;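 further: stock transfer was 7.5 nL into about 10 µL; 0% = median of vehicle wells and 100% = median of positive control wells; one replicate is shown; the record names a cut of 25% in any replicate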
Target sequence (Q9QR71 whole entry, looked up): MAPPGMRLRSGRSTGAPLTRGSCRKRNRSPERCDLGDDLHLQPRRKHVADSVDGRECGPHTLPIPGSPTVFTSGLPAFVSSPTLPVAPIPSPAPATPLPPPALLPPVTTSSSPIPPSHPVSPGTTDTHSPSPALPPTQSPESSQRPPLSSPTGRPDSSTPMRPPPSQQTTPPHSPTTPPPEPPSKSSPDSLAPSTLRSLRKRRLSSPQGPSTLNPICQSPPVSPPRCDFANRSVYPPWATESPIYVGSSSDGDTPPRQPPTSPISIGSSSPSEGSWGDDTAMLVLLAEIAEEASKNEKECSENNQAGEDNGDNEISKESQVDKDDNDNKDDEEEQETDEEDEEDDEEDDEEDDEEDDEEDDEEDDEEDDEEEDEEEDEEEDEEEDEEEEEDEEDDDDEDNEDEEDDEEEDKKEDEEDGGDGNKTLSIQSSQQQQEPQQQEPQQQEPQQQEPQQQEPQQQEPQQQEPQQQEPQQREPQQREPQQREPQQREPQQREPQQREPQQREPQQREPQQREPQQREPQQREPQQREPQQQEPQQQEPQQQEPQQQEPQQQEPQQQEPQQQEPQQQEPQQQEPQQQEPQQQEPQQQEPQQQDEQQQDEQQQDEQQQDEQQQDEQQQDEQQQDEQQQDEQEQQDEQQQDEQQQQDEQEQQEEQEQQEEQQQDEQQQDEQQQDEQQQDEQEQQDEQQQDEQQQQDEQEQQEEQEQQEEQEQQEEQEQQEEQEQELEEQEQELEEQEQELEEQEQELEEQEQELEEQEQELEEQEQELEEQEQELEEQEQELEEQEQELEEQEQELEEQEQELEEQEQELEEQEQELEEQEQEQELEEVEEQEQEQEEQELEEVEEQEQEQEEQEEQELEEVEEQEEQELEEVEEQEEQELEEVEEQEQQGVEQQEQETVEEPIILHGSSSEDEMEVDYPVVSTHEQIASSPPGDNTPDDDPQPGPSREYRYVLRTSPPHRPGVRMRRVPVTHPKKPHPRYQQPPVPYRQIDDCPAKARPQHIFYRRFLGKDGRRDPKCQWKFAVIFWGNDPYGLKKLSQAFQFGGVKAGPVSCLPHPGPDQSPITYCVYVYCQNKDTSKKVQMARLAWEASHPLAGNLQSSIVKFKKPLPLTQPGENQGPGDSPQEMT
B2AR ag: agonists of human beta-2 adrenergic receptor inducing internalization; Am2.2-beta2AR cells, FAP receptor internalization, flow cytometry; reference of the scale not given here; response, % (test concentration not listed); 340,000 compounds, 0.43% hits; AID 504454;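 active means response above a set limit, near 3 SD of response in nonfluorescent compounds, cut at about 42% in these data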;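 further: stock transfer was 100 nL into about 11 µL; a reference agonist was the positive control; negative values mostly stem from fluorescent compounds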
* hit, by the source's call; & = joins results of further samples.

Cc1cccc(NC(=O)CN2C(=S)NC(C)(C)CC2C)c1 (configuration not stated) was read as RanGTP-Impb inh 1.0, HNF4A DNA FP 4.2, Calb FLC 26, ALR H2O2 inh -20, LANA-H2A inh -3.7 and B2AR ag -2.
For Cc1ccc(NC(=O)CN(C)C(=O)CSc2nc(C)cs2)cc1 the results were RanGTP-Impb inh -1.2, HNF4A DNA FP -1.1, Calb FLC 4, Vif A3G 1%, ALR H2O2 inh inconclusive, LANA-H2A inh 1.5 and B2AR ag 1.
For COc1ccc(S(=O)(=O)N2CCN(C(=O)CCNC(=O)c3ccccc3Cl)CC2)cc1 the results were HNF4A DNA FP 1.4, Vif A3G -2%, ALR H2O2 inh -1, LANA-H2A inh -2.8 and B2AR ag -1.
Screening COc1cccc(OC)c1C(=O)Nc1c(C(=O)N2CCN(c3ccccn3)CC2)oc2ccccc12 returned RanGTP-Impb inh 1.8, HNF4A DNA FP 5.6, Calb FLC 5, ALR H2O2 inh -1, LANA-H2A inh -2.4 and B2AR ag -3.
COc1ccc(C(=O)/C=C/C(=O)N(CC(=O)NC2CCCCC2)CC2CCCO2)c(O)c1 (configuration not stated) was read as RanGTP-Impb inh inconclusive, HNF4A DNA FP 0.7, Calb FLC 47, LANA-H2A inh 1.3 and B2AR ag 112*.
`COc1ccc(N2CC(C)Cn3c2nc2c3c(=O)n(Cc3ccccc3)c(=O)n2C)c(OC)c1` (configuration not stated) gave RanGTP-Impb inh 3.1, HNF4A DNA FP 3.5, Calb FLC 1, Vif A3G 12%, ALR H2O2 inh -23, LANA-H2A inh -2.6 and B2AR ag 4.
Cc1cn(CC(=O)NCc2ccc(N(C)C)cc2)c(=O)[nH]c1=O was read as HNF4A DNA FP -0.3, Vif A3G -8% and B2AR ag -8.
`CSCCC(NS(=O)(=O)c1ccccc1F)C(=O)N1CCCCCCC1` (configuration not stated) gave RanGTP-Impb inh -0.5, HNF4A DNA FP 0.9, Calb FLC 8, ALR H2O2 inh 0, LANA-H2A inh -0.7 and B2AR ag 2.
CC(C)(C)c1ccc(Cn2nnc3c(=O)[nH]c(C4CCCN(C(=O)Cc5cccs5)C4)nc32)cc1 (configuration not stated) was read as RanGTP-Impb inh -0.3, HNF4A DNA FP -1.8, Calb FLC 9, Vif A3G -2%&5%, ALR H2O2 inh -5, LANA-H2A inh -1.8 and B2AR ag 6.
`Cc1ccc2sc(N(CCCN(C)C)C(=O)c3ccc(S(=O)(=O)N4CCOCC4)cc3)nc2c1C` gave RanGTP-Impb inh -1.4, HNF4A DNA FP 1.0, Calb FLC 3, Vif A3G 8%, ALR H2O2 inh 0, LANA-H2A inh 2.7 and B2AR ag 4.
`Cc1ccc(CN(C)C(=O)CN2C(=O)NC3(CCCC3)C2=O)o1` gave HNF4A DNA FP -1.4, Vif A3G -2%, ALR H2O2 inh 6 and B2AR ag 1.
Screening COC(=O)C1=C(C(=O)OC)[C@@H]2N(C)c3ccc(OC)cc3[C@@]23C[C@@H](C(=O)OC)N(C(=O)c2ccc(Br)cc2)C3=N1 returned RanGTP-Impb inh 0.8, HNF4A DNA FP -3.5, Calb FLC -20, LANA-H2A inh -2.0 and B2AR ag 9.
`O=C(CSc1ccc(Cl)cc1)N1CCN(c2ccc([N+](=O)[O-])cc2Cl)CC1` gave RanGTP-Impb inh -3.1, HNF4A DNA FP 3.5, Calb FLC -42, Vif A3G 32%, ALR H2O2 inh -4, LANA-H2A inh -0.9 and B2AR ag 1.
Cc1cc(CNC(=O)c2cc(COc3c(F)cccc3F)on2)nn1C was read as RanGTP-Impb inh -2.6, HNF4A DNA FP 3.7, Calb FLC 3, Vif A3G -5%, ALR H2O2 inh 0, LANA-H2A inh 3.7 and B2AR ag 4.
For O=C(NCc1ccco1)c1cc2cc(Br)ccc2o1 the results were RanGTP-Impb inh -0.9, HNF4A DNA FP -0.9, Calb FLC -8, Vif A3G 0%, ALR H2O2 inh 98*, LANA-H2A inh 0.4 and B2AR ag 7.
`Cc1nc2c3ccccc3nc(NNC(=O)CCC(=O)NC3CCCC3)n2n1` gave RanGTP-Impb inh 2.7, HNF4A DNA FP -4.6, Calb FLC -1, Vif A3G -7%, ALR H2O2 inh 79*, LANA-H2A inh -5.1 and B2AR ag -2.
For Cc1cc(C)cc(N(C(=O)c2sc(C)nc2C)C(C(=O)NC(C)(C)C)c2ccncc2)c1 (configuration not stated) the results were RanGTP-Impb inh 1.0, HNF4A DNA FP 0.9, Calb FLC -1, Vif A3G 12%, LANA-H2A inh 0.1 and B2AR ag -2.
CC(C)CNS(=O)(=O)c1ccc(OCC(=O)Nc2ccc(F)cc2F)cc1 was read as RanGTP-Impb inh -0.6, HNF4A DNA FP 4.0, Calb FLC 8, Vif A3G 22%, LANA-H2A inh -5.9 and B2AR ag 9.
`O=C(c1ccc(N2CCOCC2)cc1[N+](=O)[O-])N1CCOCC1` gave RanGTP-Impb inh -1.3, HNF4A DNA FP 3.2, Calb FLC -1, Vif A3G 5%, ALR H2O2 inh -16, LANA-H2A inh 4.4 and B2AR ag 1.
`CC(C)OCC(O)CS(=O)Cc1ccccc1` (configuration not stated) gave RanGTP-Impb inh -2.1, HNF4A DNA FP -3.7, Calb FLC -8, Vif A3G -4%, ALR H2O2 inh 1, LANA-H2A inh -1.2 and B2AR ag -1.
For Cc1sc2ncnc(N[C@@H](Cc3ccccc3)C(=O)O)c2c1C the results were RanGTP-Impb inh -2.4, HNF4A DNA FP 2.7, Calb FLC 2, Vif A3G -2%, ALR H2O2 inh -2, LANA-H2A inh -4.5 and B2AR ag 2.
`COc1ccccc1C(=O)NC(=O)COC(=O)CNC(=O)c1ccccc1F` gave HNF4A DNA FP 4.7, ALR H2O2 inh -1, LANA-H2A inh 1.9 and B2AR ag -3.
O=C(Nc1ccc2c(c1)CN(Cc1ccc(CO)o1)CC2)c1ccc(C(F)(F)F)cc1 was read as RanGTP-Impb inh 8.2, HNF4A DNA FP 5.8, Calb FLC 48, ALR H2O2 inh -2, LANA-H2A inh -0.6 and B2AR ag -1.
Screening C[C@H](NC(=O)c1nc[nH]c1C(=O)N1CCc2ccccc2C1)C(=O)OC(C)(C)C returned RanGTP-Impb inh 2.0, HNF4A DNA FP -0.6, Calb FLC -1, Vif A3G 1%, ALR H2O2 inh -2, LANA-H2A inh -0.5 and B2AR ag -11.
For CC(C)(C)c1ccc(OCC(=O)Nc2ccc3c4c(cccc24)C(=O)NC3=O)cc1 the results were RanGTP-Impb inh 2.2, HNF4A DNA FP -17, Calb FLC -6, Vif A3G -1% and B2AR ag -63.
Screening Cc1oc(-c2cc(F)ccc2F)nc1CN1CCN(c2ncnc3ccccc23)CC1 returned RanGTP-Impb inh 2.1, HNF4A DNA FP 6.7, Calb FLC -29, Vif A3G 5%, ALR H2O2 inh 2, LANA-H2A inh -3.1 and B2AR ag -14.
`c1ccc(-c2cc3c(N4CCN(c5ncccn5)CC4)ncnc3s2)cc1` gave RanGTP-Impb inh 4.8, HNF4A DNA FP 1.0, Calb FLC -5, Vif A3G -85%, ALR H2O2 inh 8, LANA-H2A inh 0.7 and B2AR ag -6.
For Cc1cccc(OCCCc2c(C)n[nH]c2C)c1 the results were RanGTP-Impb inh 1.9, HNF4A DNA FP 2.7, Calb FLC -19, Vif A3G 18%, ALR H2O2 inh 0, LANA-H2A inh -1.5 and B2AR ag 1.
CCN(CC)S(=O)(=O)c1ccc2c(c1)c(=O)c(C(=O)N1CCN(c3ccccc3)CC1)cn2C was read as RanGTP-Impb inh 1.5, HNF4A DNA FP 4.6, Calb FLC -12, Vif A3G inconclusive, ALR H2O2 inh 28, LANA-H2A inh 2.1 and B2AR ag 1.
Screening CCOC(=O)N1CCc2c(sc3c2c(=O)n(-c2ccc(CC)cc2)c(=O)n3CC(=O)NCC2CCCO2)C1 (configuration not stated) returned RanGTP-Impb inh -0.2, HNF4A DNA FP 2.3, Calb FLC -11, ALR H2O2 inh -5, LANA-H2A inh 1.9 and B2AR ag -1.
Cc1cc(=O)oc2cc(OC(C)C(=O)NC3CCCC3)ccc12 (configuration not stated) was read as RanGTP-Impb inh 0.6, HNF4A DNA FP -3.3, Calb FLC 1, ALR H2O2 inh 2, LANA-H2A inh 2.6 and B2AR ag 5.
For Cc1cc2cc3c(cc2nc1SCC(=O)Nc1ccccc1)CCC3 the results were RanGTP-Impb inh 1.3, HNF4A DNA FP -4.8, Calb FLC -12, Vif A3G -18%, ALR H2O2 inh -5, LANA-H2A inh -1.2 and B2AR ag 5.
For CCC(CC)NC(=O)Nc1cccc(C)c1C the results were RanGTP-Impb inh 6.7, HNF4A DNA FP 3.4, Calb FLC -3, Vif A3G -1%, ALR H2O2 inh 1, LANA-H2A inh 3.9 and B2AR ag 2.
Screening CN(C(=O)CN1C(=O)S/C(=C\c2ccccc2Cl)C1=O)C1CCS(=O)(=O)C1 (configuration not stated) returned RanGTP-Impb inh 2.4, HNF4A DNA FP -3.0, Calb FLC -3, ALR H2O2 inh -4, LANA-H2A inh 6.5 and B2AR ag -4.
Screening C#Cc1ccc([C@H]2C=C(C(=O)N3CCN(Cc4ccccc4)CC3)O[C@@H](OCC)[C@@H]2CCCO)cc1 returned RanGTP-Impb inh 9.1, HNF4A DNA FP -2.0, Calb FLC 9, Vif A3G 5%, ALR H2O2 inh -12, LANA-H2A inh 0.1 and B2AR ag 1.
`Cc1ccc(-c2nn(C)c(=O)c3ccccc23)cc1S(=O)(=O)NCCN1CCOCC1` gave RanGTP-Impb inh 1.8, HNF4A DNA FP 2.1, Calb FLC 0, Vif A3G 0%, ALR H2O2 inh -3, LANA-H2A inh -6.1 and B2AR ag 0.

At a glance, part of the list above:
Cc1cccc(NC(=O)CN2C(=S)NC(C)(C)CC2C)c1 (configuration not stated) was read as RanGTP-Impb inh 1.0, HNF4A DNA FP 4.2, Calb FLC 26, ALR H2O2 inh -20, LANA-H2A inh -3.7 and B2AR ag -2.
For Cc1ccc(NC(=O)CN(C)C(=O)CSc2nc(C)cs2)cc1 the results were RanGTP-Impb inh -1.2, HNF4A DNA FP -1.1, Calb FLC 4, Vif A3G 1%, ALR H2O2 inh inconclusive, LANA-H2A inh 1.5 and B2AR ag 1.
For COc1ccc(S(=O)(=O)N2CCN(C(=O)CCNC(=O)c3ccccc3Cl)CC2)cc1 the results were HNF4A DNA FP 1.4, Vif A3G -2%, ALR H2O2 inh -1, LANA-H2A inh -2.8 and B2AR ag -1.
Screening COc1cccc(OC)c1C(=O)Nc1c(C(=O)N2CCN(c3ccccn3)CC2)oc2ccccc12 returned RanGTP-Impb inh 1.8, HNF4A DNA FP 5.6, Calb FLC 5, ALR H2O2 inh -1, LANA-H2A inh -2.4 and B2AR ag -3.

Further records follow.
For COc1ccccc1C(=O)NCCN=C1NS(=O)(=O)c2ccccc21 the results were RanGTP-Impb inh inconclusive, HNF4A DNA FP -1.1, Calb FLC -3, ALR H2O2 inh -2, LANA-H2A inh -5.4 and B2AR ag -3.
`CCc1ccc(NC(=S)Nc2cccc3cnccc23)cc1` gave RanGTP-Impb inh 1.9, HNF4A DNA FP -1.4, Calb FLC 18, Vif A3G 13%, ALR H2O2 inh -191, LANA-H2A inh 0.3 and B2AR ag 7.
CCN(CC)S(=O)(=O)c1ccc2[nH]c(=O)cc(C(=O)Nc3ccccc3N3CCOCC3)c2c1 was read as HNF4A DNA FP 2.7, Vif A3G 0%, ALR H2O2 inh -1, LANA-H2A inh 1.0 and B2AR ag 0.
`CCOC(=O)CC1COCCN1Cc1cn[nH]c1-c1cc(OC)c(OC)c(OC)c1` (configuration not stated) gave RanGTP-Impb inh 1.7, HNF4A DNA FP 1.6, Calb FLC 2, Vif A3G 29%, LANA-H2A inh 4.0 and B2AR ag 7.

Screens deposited in PubChem by several laboratories.
